High-throughput results from PubChem BioAssay.
Mtb growth: M. tuberculosis H37Rv growth inhibitors, H37Rv strain (AID 1626). one-dose inhibition, % at 10 µM; IC50 in µM for titrated hits. 0.95% of 220,000 active. M. tuberculosis H37Rv growth inhibition; higher % means a stronger effect;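 active = confirmed in a dose series; inconclusive = inhibition above 80% but not taken into the dose series; inactive = below 80% or under 30% at every dose of the series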;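 note: bacteria incubated seven days before Alamar blue readout; 0% = bacteria only wells and 100% = bacteria with antibiotic wells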
Arbovirus inh: antivirals against arbovirus infection, primary screen, cell-based, full library, 10K replicate subset. inhibition, % at 10 µM. AID 1251, 2008. arbovirus infection cell-based antiviral screen. 0.37% of 200,000 active;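 active = inhibition from about 30%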;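 note: bluetongue infection of BSR cells; cell survival read as ATP light after 72 h; 0% = infected wells without compound and 100% = uninfected wells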
RecA splice inh: Mtb RecA intein splicing inhibitors, primary screen, biochemical, fluorescence, HTS; cell-free RecA intein splicing; Protein RecA (Mycobacterium tuberculosis (strain ATCC 25618 / H37Rv)), P9WHJ3; 0.75% of 290,000 active; inhibition, %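 (about 9 µM by stock and volumes)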; in the data active = inhibition above about 30%; inconclusive = no clear call, values can overlap the other calls;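 note: 0% = vehicle wells and 100% = reference inhibitor control wells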
Target sequence (P9WHJ3 whole entry, looked up, canonical isoform): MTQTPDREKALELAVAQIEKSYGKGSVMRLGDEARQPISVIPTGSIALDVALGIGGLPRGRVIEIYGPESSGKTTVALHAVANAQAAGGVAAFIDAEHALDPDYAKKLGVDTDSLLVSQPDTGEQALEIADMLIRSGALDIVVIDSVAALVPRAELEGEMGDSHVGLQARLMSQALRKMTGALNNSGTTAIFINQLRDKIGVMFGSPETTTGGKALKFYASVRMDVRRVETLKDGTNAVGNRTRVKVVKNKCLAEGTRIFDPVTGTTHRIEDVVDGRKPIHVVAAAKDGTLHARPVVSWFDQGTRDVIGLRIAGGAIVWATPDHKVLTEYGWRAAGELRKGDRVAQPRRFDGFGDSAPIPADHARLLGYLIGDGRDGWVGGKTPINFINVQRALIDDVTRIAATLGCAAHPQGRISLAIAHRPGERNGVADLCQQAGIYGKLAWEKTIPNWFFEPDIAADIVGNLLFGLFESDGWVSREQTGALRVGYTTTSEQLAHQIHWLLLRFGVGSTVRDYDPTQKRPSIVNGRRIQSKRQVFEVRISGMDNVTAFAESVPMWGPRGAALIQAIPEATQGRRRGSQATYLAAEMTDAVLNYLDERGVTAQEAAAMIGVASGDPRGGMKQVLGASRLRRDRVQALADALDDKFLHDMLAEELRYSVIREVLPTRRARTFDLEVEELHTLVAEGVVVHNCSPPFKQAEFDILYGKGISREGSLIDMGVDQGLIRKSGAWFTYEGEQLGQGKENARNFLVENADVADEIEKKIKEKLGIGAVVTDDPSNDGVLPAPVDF
Mtb bLac sens: beta-lactam sensitization of Mtb H37Rv, H37Rv. M. tuberculosis H37Rv growth with meropenem, percent inhibition; hits of this screen are not shown here. inhibition, % at 25 µM. 0.27% of 330,000 active. AID 434955, 2010;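 active = about 74% or more and at least 40 points above the plate without the antibiotic, then above 30% in a dose series; inconclusive = first-round hits that could not be retested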;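 note: growth measured after seven days incubation then overnight dye step; 0% = bacteria only wells and 100% = bacteria with antibiotic; twin plates without the antibiotic show which effects depend on it; some results filed as inactive read as strong as hits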
YopH inh: YopH tyrosine phosphatase inhibitors, primary screen, biochemical, fluorescence Ex485/Em525. YopH tyrosine phosphatase [Yersinia enterocolitica]. AID 898, 2007. inhibition, %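 (about 10 µM by stock and volumes)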. 0.16% of 140,000 active;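 active = inhibition of 50% or more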;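 note: controls were vehicle for no effect and minimum signal wells for full effect; inactives centre near -20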
Arbovirus inh repeat: second read-out of Arbovirus inh, no call of its own (marks repeat the call); inhibition, %; measured here: 10K subset replicate screen; many hits read low in the repeat;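 first of two repeat runs on a subset; 0% = infected and 100% = uninfected wells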
Active calls of the source: *; ? = inconclusive; / = no result given.

Sample of the layout (3 entries):
SMILES | Mtb growth | Arbovirus inh | RecA splice inh | Mtb bLac sens | YopH inh | others
Cc1ccc(NC(=O)O/N=C2\CCCCC2c2ccc([N+](=O)[O-])cc2[N+](=O)[O-])cc1 (stereo unspecified) | / | 4 | -2.7 | 1 | 3
O=C1CN=C(Nc2cccc(C(F)(F)F)c2)N1C1CCCC1 | -9% | 5 | 0.1 | 5 | -22
COc1cccc(-c2ocnc2C(=O)Nc2ccc3c(c2)CCC3)c1 | / | / | 3.5 | -7 | /

The list itself, from the first entry:
SMILES | Mtb growth | Arbovirus inh | RecA splice inh | Mtb bLac sens | YopH inh | others
Cc1ccc(NC(=O)O/N=C2\CCCCC2c2ccc([N+](=O)[O-])cc2[N+](=O)[O-])cc1 (stereo unspecified) | / | 4 | -2.7 | 1 | 3
O=C1CN=C(Nc2cccc(C(F)(F)F)c2)N1C1CCCC1 | -9% | 5 | 0.1 | 5 | -22
COc1cccc(-c2ocnc2C(=O)Nc2ccc3c(c2)CCC3)c1 | / | / | 3.5 | -7 | /
CCOc1ccc(CN(C)C(=O)CNC(=O)c2ccc3ccccc3c2)cc1OC | / | / | 3.2 | -4 | /
O=C(CCC(=O)N1CCN(c2ccc(F)cc2)CC1)c1ccccc1 | / | / | 0.2 | 2 | /
CC(NC(=O)c1cc2c(cc1Cl)N1CCCCCC1=NS2(=O)=O)c1ccc(S(N)(=O)=O)cc1 (stereo unspecified) | / | / | -1.3 | 1 | /
CCCN(CC(=O)Nc1ccccc1OC)C(=O)CCC(=O)c1ccc(F)cc1 | / | / | 4.1 | 0 | /
Cc1ccc(CNC(=O)CN(C(=O)C2(C)CC(=O)N=C3C=CC=CN32)c2ccccc2F)cc1 (stereo unspecified) | / | / | -1.3 | -2 | /
O=C(NCc1nnc(SCC(=O)N2CCCC2)o1)c1c(F)cccc1Cl | -6% | 4 | -3.6 | -3 | -17
COc1ccc(NC(=O)Nc2cccs2)cn1 | / | / | 1.9 | 12 | /
COc1ccc(N2C(=O)CCC(C(=O)NCc3ccccn3)C2c2ccc(F)cc2)cc1 (stereo unspecified) | -10% | 2 | -6.1 | -5 | -9
COC(=O)c1ccc(NC(=O)c2cccc(Cl)c2)o1 | -9% | 0 | -0.2 | 0 | -20
COc1ccccc1Cn1c(=S)[nH]c2cc(C(=O)NCC3CCCO3)ccc2c1=O (stereo unspecified) | -1% | -5 | -0.4 | 2 | /
CCNC(=S)NNC(=O)CCn1c2ccccc2c2ccccc21 | -1% | 0 | 1.2 | -6 | -11
Cc1cccc(NC(=O)CSc2nc(N)cc(N)n2)c1 | -1% | -1 | 0.9 | -1 | 9
O=C(NNc1cc(N2CCOCC2)nc(N2CCOCC2)n1)c1ccc(Cl)cc1Cl | 10% | -19 | 7.4 | 4 | -17
CN(C)S(=O)(=O)Nc1cc(F)cc(F)c1 | -7% | -1 | -1.6 | 4 | /
Cc1cccc2[nH]c(-c3ccc(NC(=O)c4ccco4)cc3)nc12 | 0% | -8 | -1.2 | -6 | -52
O=C(NC1CCCCC1)c1ccc(S(=O)(=O)NCc2ccco2)cc1 | 2% | 4 | -4.4 | -4 | -38
Cc1cc(Nc2ncc(Cl)cc2Cl)n(-c2ccccc2C)n1 | 3% | -9 | 1.0 | 1 | -25

Structures above with an NH in an aromatic ring (2):
SMILES | Mtb growth | Arbovirus inh | RecA splice inh | Mtb bLac sens | YopH inh | others
COc1ccccc1Cn1c(=S)[nH]c2cc(C(=O)NCC3CCCO3)ccc2c1=O (stereo unspecified) | -1% | -5 | -0.4 | 2 | /
Cc1cccc2[nH]c(-c3ccc(NC(=O)c4ccco4)cc3)nc12 | 0% | -8 | -1.2 | -6 | -52

The listing picks up with the 2 entries that preceded the break.
SMILES | Mtb growth | Arbovirus inh | RecA splice inh | Mtb bLac sens | YopH inh | others
O=C(NC1CCCCC1)c1ccc(S(=O)(=O)NCc2ccco2)cc1 | 2% | 4 | -4.4 | -4 | -38
Cc1cc(Nc2ncc(Cl)cc2Cl)n(-c2ccccc2C)n1 | 3% | -9 | 1.0 | 1 | -25
COC1=C/C(=C/c2c(N)n3nc(CC(=O)N4CCCC4)sc3nc2=O)C=CC1=O | / | / | -3.6 | -6 | /
CN(/N=C/c1cc(Cl)cc(Cl)c1O)C(=S)NC(C)(C)C | -1% | / | -85 | 7 | /
Cc1ccc(N=C2C(=O)Nc3ccc(Br)cc32)cc1 | / | / | 1.8 | -3 | /
O=[N+]([O-])c1ccc(N2CCCCCC2)c2nonc12 | / | / | -14 | 6 | /
O=C(CSc1nc2c([nH]c3ccccc32)c(=O)n1-c1cccc(Cl)c1)N1CCOCC1 | 0% | -4 | 1.7 | -5 | -25 | Arbovirus inh repeat=-9
CCc1cc2cc3c(cc2nc1SCC(=O)Nc1c[nH]c(=O)[nH]c1=O)OCO3 | / | / | 3.6 | -2 | /
COc1ccc(C(=O)N(Cc2ccccc2)c2cccc(C)c2)cc1 | / | / | 12 | -6 | /
C/C(CC(=O)Nc1ccccn1)=N\NC(=O)C(=O)Nc1ccccc1C | 10% | -4 | 29 | -4 | 4
CN(C)S(=O)(=O)c1ccc(C(=O)N2CCCC2c2nc3ccccc3s2)cc1 (stereo unspecified) | -3% | -2 | -2.0 | -7 | -19
COc1cccc(C2C(C(=O)c3cc4ccccc4o3)=C(O)C(=O)N2c2cc(C)on2)c1 (stereo unspecified) | / | / | 0.9 | 2 | /
CNc1ncc(C(=O)c2ccc(-c3ccccc3)cc2)s1 | -1% | / | -1.8 | 4 | /
CN(Cc1ccc(F)cc1)Cc1nc(-c2ccccc2)no1 | / | / | 0.7 | 1 | /
Cc1noc(/C=C/c2ccco2)c1S(=O)(=O)N1CCC(C(=O)N2CCc3ccccc3C2)CC1 | / | 4 | 9.8 | 10 | -41
CN(c1ccccc1C(=O)Nc1ccc(F)c(F)c1)S(C)(=O)=O | 22% | 3 | -1.7 | 0 | /
COc1ccc(C2Nc3cc(OC)ccc3-n3cccc32)cc1 (stereo unspecified) | -2% | / | -47 | 48 | /
C=CCOc1cccc(C2/C(=C(/O)c3ccc(Cl)cc3)C(=O)C(=O)N2CCN2CCOCC2)c1 (stereo unspecified) | -8% | 5 | 1.8 | -5 | -48
OCC[C@@H]1C[C@H](O)[C@@H](O)[C@@]2(OCCCc3ccccc32)O1 | / | / | -1.2 | -2 | /
O=C(Oc1ccc(Nc2ncnc3ccccc23)cc1)c1cccnc1 | -4% | -17 | / | / | /
O=C(Nc1ccc(F)cc1Cl)c1ccc2c(=O)n3c(nc2c1)CCCCC3 | 3% | 1 | -1.2 | 1 | -54
Cn1c(=O)n(-c2cccc(Cl)c2)c(=O)n1C | -15% | -4 | -1.2 | -5 | 10

Already shown: 4 of the compounds above.
SMILES | Mtb growth | Arbovirus inh | RecA splice inh | Mtb bLac sens | YopH inh | others
COc1ccc(C(=O)N(Cc2ccccc2)c2cccc(C)c2)cc1 | / | / | 12 | -6 | /
C/C(CC(=O)Nc1ccccn1)=N\NC(=O)C(=O)Nc1ccccc1C | 10% | -4 | 29 | -4 | 4
CN(C)S(=O)(=O)c1ccc(C(=O)N2CCCC2c2nc3ccccc3s2)cc1 (stereo unspecified) | -3% | -2 | -2.0 | -7 | -19
COc1cccc(C2C(C(=O)c3cc4ccccc4o3)=C(O)C(=O)N2c2cc(C)on2)c1 (stereo unspecified) | / | / | 0.9 | 2 | /

The list goes on:
SMILES | Mtb growth | Arbovirus inh | RecA splice inh | Mtb bLac sens | YopH inh | others
CN(Cc1ccccc1)C(=O)CCC1CCN(C(=O)c2ccccc2C(F)(F)F)CC1 | / | / | -0.3 | -12 | /
CC(C)(C)NCc1cc2ccccc2[nH]c1=O | -5% | 1 | -7.0 | -13 | -11
S=C(Nc1ccccc1Cl)NC1CCN(Cc2ccccc2)CC1 | 5% | 6 | 1.4 | 1 | -3
CCOC(=O)c1cc(-c2cccs2)[nH]n1 | 1% | / | -1.7 | -4 | /
CC(Cc1ccccn1)NC(=O)c1ccc(OC2CCN(Cc3ccccn3)CC2)cc1 (stereo unspecified) | / | / | -1.5 | -12 | /
O=c1cc(CO)oc(C(Nc2cccc([N+](=O)[O-])c2)c2ccccn2)c1O (stereo unspecified) | / | -5 | -3.4 | 8 | -16
CCc1cc2c3c(c1)C(C)CC(C)(C)N3C(=O)/C2=C1\SC(=O)NC1=O (stereo unspecified) | 6% | / | 8.2 | 1 | /
COc1ccc(C(C)=O)cc1CSc1ccccn1 | 2% | / | 0.2 | 2 | /
CN(C)N=C1c2cc(S(=O)(=O)N3CCOCC3)ccc2-c2ccc(S(=O)(=O)N3CCOCC3)cc21 | 3% | -10 | -8.0 | ? | -17
O=C(Nc1nc2ccccc2c(=O)[nH]1)c1ccccc1SCc1ccccc1 | 14% | -4 | -6.7 | 6 | /
Cc1nc2cc(C(=O)NCCN3CCOCC3)ccc2n1-c1ccc(F)cc1F | -4% | 3 | 1.0 | -7 | -45
COc1ccc(S(=O)(=O)N2CCN(C(c3ccccc3)c3ccccc3)CC2)cc1NC(C)=O | / | / | 0.0 | 1 | /
CN(C)c1ccc(/C=C2/C=C(c3ccc4c(c3)CCCC4)OC2=O)cc1 | 7% | / | 1.3 | 14 | /
Cc1ccc(SCCNC(=O)CN2C(=O)c3ccccc3S2(=O)=O)cc1 | -8% | 6 | 3.2 | -7 | -9
CCN1CCN(Cc2ccc(NC(=O)Nc3ccc(OC)cc3)cc2)CC1 | -9% | -13 | / | 1 | -26 | Arbovirus inh repeat=0
O=[N+]([O-])c1cccc(/C=N/Nc2nc(N3CCOCC3)nc(N3CCOCC3)n2)c1 | 9% | 2 | -2.3 | 0 | -42
COc1cc(NC(=O)CS(=O)(=O)c2ccc(C)cc2)cc(OC)c1OC | -5% | 0 | / | -3 | 3
CCS(=O)(=O)c1ccc2oc(SCC(=O)NCCc3ccc(OC)cc3)nc2c1 | -3% | 10 | 9.2 | -4 | /
CCCC(=O)NC(C)C(c1cccs1)N1CCN(C)CC1 (stereo unspecified) | 2% | 0 | 1.6 | -11 | -33
O=C(Nc1ccc(NC(=O)c2cccs2)cc1)c1ccc2ccccc2c1 | / | / | -1.3 | 5 | /
COc1ccc(NS(=O)(=O)c2ccc(-c3coc(C)n3)cc2)c(OC)c1 | / | / | 0.7 | -8 | /
CC1CC(C)(C)NC(=S)N1CCCC(=O)NCCc1ccc(Cl)cc1 (stereo unspecified) | -11% | 7 | 0.4 | 4 | /
O=C(Nc1nc(COc2ccccc2)cs1)c1ccccc1F | -5% | -5 | 1.7 | -6 | -7
CCCC(=O)NC(c1ccc(OC)cc1)c1ccc2cccnc2c1O (stereo unspecified) | -5% | -23 | -2.9 | 7 | /
O=c1oc2ccccc2c2c1nnn2CCO | -3% | 2 | -7.5 | 5 | /
COc1cccc(CN(C)C(=O)COc2ccc(C(=O)c3ccc(Cl)cc3)cc2)c1OC | / | / | 9.8 | -3 | /
O=C(CN1C(=O)NC2(CCCC2)C1=O)OCc1ccc(F)cc1 | / | / | -0.3 | 0 | /
O=C(NC1CCCCC1)N(CCO)Cc1cc2cc3c(cc2[nH]c1=O)OCCO3 | -8% | 0 | -2.4 | 4 | -3
COc1cccc(NC(=O)Nc2cccn(Cc3ccc(C)cc3)c2=O)c1 | 3% | -4 | 6.6 | 3 | /
COc1ccc(-c2nnn(CC(=O)N(CC(=O)NC3CCCC3)Cc3ccco3)n2)cc1OC | -3% | -1 | 0.2 | 6 | /
O=C(/C=C/c1ccco1)NC(=S)Nc1cccc(C(=O)O)c1 | / | / | -1.1 | 5 | /
CC1CCCN(C2(O)C(=O)Nc3ccc([N+](=O)[O-])cc32)C1 (stereo unspecified) | / | / | -0.5 | 6 | /
COc1ccc(CNCCc2ccc3c(c2)OCO3)cc1Br | / | / | -1.3 | -3 | /
COc1ccc(CCNC(=S)Nc2ccc(C(C)C)cc2)cc1 | ? | / | 11 | -5 | /
Cn1c(=O)n(CC(=O)O)c(=O)c2c1nc1n2CCCN1Cc1ccccc1 | / | / | 0.6 | 2 | /

Not all compounds are listed; count on the stated rates, not on these rows.
